Resorufin fluor – resorufin region autofluorescence | Compound fluorescence, resorufin region 547/598 nm, buffer; stronger effect = higher value | max dye-equivalent concentration, M | actives 0.04% (n = 59,000) | AID 588; active = above 10 nM dye equivalent; inconclusive = 1 to 10 nM; inactive = 1 nM or less; a few of its hits are not listed in these tables; also: highest value over a series up to 38 µM
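Intrinsic fluorescence profiled in the resorufin window (ex 547 nm, em 598 nm) after 15 min at room temperature in pH 8.0 Tris buffer (100 mM); responses normalized against a six-point resorufin standard series as dye-equivalent concentration.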
A488 fluor – compound fluoresces in the A488 spectral region; compound autofluorescence, A488 spectral region, dye equivalency; stronger effect = higher value; max dye equivalency, M; actives 0.1% (n = 59,000); AID 591; active = above 10 nM dye equivalent; inconclusive = 1 to 10 nM; inactive = 1 nM or less; about half of its hits are not listed in these tables;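 also: highest value over a series up to 38 µM; compound alone in buffer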
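Read-out: relative fluorescence at 480/540 nm, expressed as Alexa 488 dye-equivalent concentration from a six-point A488 standard included per plate. Conditions: 100 mM Tris, pH 8.0; 15 min incubation, room temperature.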
A647 fluor – A647 region autofluorescence | max dye-equivalent concentration, M | 59,000 tested, under 10 active | AID 592 | Compound fluorescence, A647 channel (570/671 nm), Tris buffer; active means above 1 µM dye equivalent; inconclusive means 0.1 to 1 µM; inactive means 0.1 µM or less;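 also: values scaled relative to a standard on each plate; highest value over a series up to 38 µM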
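Each compound's intrinsic fluorescence at 570 nm excitation and 671 nm emission is measured across its concentration series in 100 mM Tris, pH 8.0, after 15 min at room temperature, and reported relative to an A647 curve.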
TSHR agonist – agonists of human thyroid stimulating hormone receptor | P16473 | HEK293-CNG-TSHR cells (CNG channel as cAMP sensor), membrane potential dye, cAMP | Potency, µM (doses to about 57.1 µM), for inactives: at the highest dose activation, actives largely listed as activators | actives 0.48% (n = 73,000) | AID 926; active = well fitted activation curve of enough size with the parental cells flat; inconclusive = any curve in the parental cells; inactive = parental cells flat and receptor cells flat or falling; also: potency is read from the fitted curve at half-maximal effect; % of control where 0% means no effect; weak receptor curves with flat parental cells got no call and are not listed
Target sequence (P16473 whole entry, looked up): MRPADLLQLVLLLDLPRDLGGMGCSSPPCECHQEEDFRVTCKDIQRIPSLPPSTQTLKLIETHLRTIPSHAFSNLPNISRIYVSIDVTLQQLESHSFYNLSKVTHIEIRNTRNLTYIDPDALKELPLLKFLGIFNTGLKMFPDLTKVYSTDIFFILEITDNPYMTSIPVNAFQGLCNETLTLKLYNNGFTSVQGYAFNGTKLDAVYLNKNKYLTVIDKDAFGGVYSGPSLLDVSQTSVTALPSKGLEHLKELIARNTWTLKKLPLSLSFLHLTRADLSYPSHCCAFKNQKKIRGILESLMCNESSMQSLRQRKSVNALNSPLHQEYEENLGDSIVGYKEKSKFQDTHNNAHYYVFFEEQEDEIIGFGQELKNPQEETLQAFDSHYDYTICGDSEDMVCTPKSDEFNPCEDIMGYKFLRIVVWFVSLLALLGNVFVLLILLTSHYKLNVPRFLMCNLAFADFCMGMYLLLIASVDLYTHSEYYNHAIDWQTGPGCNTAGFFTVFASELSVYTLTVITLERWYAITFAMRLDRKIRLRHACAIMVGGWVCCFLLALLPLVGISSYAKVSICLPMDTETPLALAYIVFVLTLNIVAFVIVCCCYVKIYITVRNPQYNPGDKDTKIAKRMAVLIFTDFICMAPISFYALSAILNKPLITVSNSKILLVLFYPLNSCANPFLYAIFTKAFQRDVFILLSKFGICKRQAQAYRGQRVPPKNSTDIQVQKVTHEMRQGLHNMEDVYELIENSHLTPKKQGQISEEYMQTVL
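HEK 293 cells stably expressing TSHR and a cAMP-gated CNG channel; parental CNG-only cells as counterscreen. Cells preloaded 60 min with membrane potential dye plus 100 uM RO 20-1724, then compound 30 min; fluorescence read at 590 nm.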
AID923 – qHTS Assay for Allosteric/Competitive Inhibitors of Caspase-1: Spectroscopic Profiling in AFC Spectral Region; Potency, µM (top dose mostly 57.5 µM), inactives show at the highest dose fluorescence increase, hits mostly activators; compound fluorescence, AFC spectral region (405/520 nm); almost no hit is shown here; actives 1.1% (n = 75,000); active = well fitted activation curve with a large enough effect; inconclusive = small, poorly fitted or top-dose-only effect;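 also: potency is read from the fitted curve at half-maximal effect; 0% is about no effect; scaled to a free AFC standard on each plate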
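Compound autofluorescence profiled at 405 nm ex/520 nm em during kinetic caspase 1 run (50 nM enzyme, 5 uM Ac-WEHD-AFC, HEPES pH 7.5, 10 mM DTT). Titration up to 57 uM; baseline from regression intercept, normalized to AFC standard curve.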
Numbers without * were called inactive; i = inactive; ? = inconclusive; / = not tested or not shown; [ ] = another dose, or the depositor's remark.

structure	Resorufin fluor	A488 fluor	A647 fluor	TSHR agonist	AID923
Cc1oc(-c2ccccc2F)nc1CN1CCC(C(=O)NC2CCCCCCC2)CC1	i	i	4e-08	2%	0.3%
COc1ccccc1N(CC(=O)Nc1cccnc1)S(C)(=O)=O	/	/	/	9%[11.4 µM]	-0.3%
CCOC(=O)/C(C(C)=O)=C1\OC(=O)c2ccccc21	i	i	2.7e-08	0%	1.4%
CCCn1c(SCC(=O)Nc2cccc(NC(C)=O)c2)nnc1C(C)C	i	i	2.8e-08	-2%	1.9%
CCc1nnc(NC(=O)C2Cc3ccccc3C(=O)O2)s1 (stereo not drawn)	/	/	/	8%	1.0%
COc1cc(OC)c(-c2nn3c(-c4ccco4)nnc3s2)cc1OC	i	i	4.2e-09	2%	1.5%
N#CC1=C(N)OC2=C(C(=O)CCC2)C1c1ccncc1 (stereo not drawn)	i	i	1e-09	-2%	2.3%
Cc1cc(C(=O)NCc2cccnc2)cs1	i	i	8.1e-09	?	-0.1%
CCSc1nc2c(c(=O)[nH]1)C(c1ccncc1)C(C(=O)OC(C)C)=C(C)N2 (stereo not drawn)	i	i	3.9e-08	3%[11.4 µM]	0.7%
CN(C)S(=O)(=O)CC12CCC(CC1=O)C2(C)C (stereo not drawn)	i	i	8.5e-09	0%	-1.5%
CCC1CCc2c(sc3ncnc(N4CCOCC4)c23)C1 (stereo not drawn)	i	i	1e-09	?	-1.6%
Cc1cc(=O)n(CC(C)C)c(O)c1C#N	i	i	1.1e-08	-4%	3.4%
O=C(Cn1cc2c(n1)CCCC2)Nc1cc(-c2cccc(Cl)c2)no1	/	/	/	21%	1.4%
CCOc1ccc(OCC)c(NC(=O)c2[nH]c(C)c(C(C)=O)c2C)c1	i	i	1e-09	3%	1.2%
C[C@@H]1C[C@H](O)c2cc(Cl)ccc2N1	i	i	1.4e-08	4%	2.2%
Cc1ccc2[nH]c3c(N4CCN(Cc5ccc6c(c5)OCO6)CC4)ncnc3c2c1	i	i	3.8e-08	/	/
CCOC(=O)C1=C(N)n2c(s/c(=C\c3ccco3)c2=O)=C(C(=O)OCC)C1c1ccco1 (stereo not drawn)	i	i	1e-09	5%	9.5%
CCOC(=O)Cn1nc(-c2ccc(Cl)cc2)ccc1=O	i	i	3.3e-08	/	-2.2%
Cc1cc(/C=N/n2cnnc2)c(C)n1-c1ccc(OCc2ccc(F)cc2)cc1	/	/	/	?	0.2%
C#C[C@@]1(OC(C)=O)CC[C@@H]2[C@@H]3CCC4=C[C@@H](OC(C)=O)CC[C@H]4[C@H]3CC[C@]21C	i	i	1.9e-08	4%[25.6 µM]	-1.1%[25.7 µM]
COC(=O)c1c(N=CN(C)C)c(C#N)c2n1CCCC2	/	/	/	6%	-0.6%
O=C(NCCN1CCOCC1)c1cc(-c2ccc(O)cc2)on1	/	/	/	-2%	2.4%
Cn1c(=O)n(Cc2ccccc2)c2ccccc21	/	/	/	11%	-2.1%
COc1cc(OC)c(NC2c3ccccc3C(=O)N2c2cc(C)ccn2)cc1Cl (stereo not drawn)	/	/	/	6%	1.3%
CCOC(=O)N1CCN(Cc2ccccc2F)CC1	i	i	2.4e-08	-4%	1.2%
CCOc1ccc2nc(NC(=O)CSc3nnnn3C3CCCCC3)sc2c1	i	i	3.8e-08	17%	-2.3%
O=C(Oc1ccccc1)N1CCC2(CC1)CN(c1ncccn1)C2	i	i	1e-09	1%	1.4%
COc1cc(C(=O)OCCN2CCCCC2)ccc1O	i	i	3.4e-09	/	/
COc1cc(NC(=O)CN2c3cccc4cccc(c34)S2(=O)=O)cc(OC)c1OC	i	i	7e-09	25%	-2.5%
CC(C)(C)NC(=O)Cn1c(SCC(=O)NCc2cccs2)nc2ccccc21	i	i	4e-09	-1%	-3.5%
CCNC(=S)NCC	/	/	/	-4%	-6.8%
Cn1c(=O)[nH]c(=O)c2c1nc(NCc1ccccc1)n2CCCc1ccccc1	i	i	6.8e-09	-17%	-1.4%
CCC(=O)NC1(C(F)(F)F)C(=O)Nc2c1c(=O)[nH]c(=O)n2Cc1ccco1 (stereo not drawn)	i	i	1e-09	/	/
N#CCc1ccccc1[N+](=O)[O-]	/	/	/	0%	-1.1%
CCCn1c(SCC(=O)N2CCN(c3ccccc3)CC2)nc2ccccc2c1=O	i	i	1.9e-08	5µM*	0.4%
Cc1c(C)c2ccc(OCc3ccc(C(=O)O)o3)c(C)c2oc1=O	i	i	1e-09	24%	-0.5%
COc1ccc(Cc2nc3ccc(S(N)(=O)=O)cc3[nH]2)cc1OC	i	i	5.2e-09	3%	0.2%
CC(/C=C/c1ccccc1)NC(N)=O (stereo not drawn)	/	/	/	?	1.6%
COc1ccc(CNc2cc(-c3cccc(NS(C)(=O)=O)c3)ncn2)c(OC)c1	i	i	1e-09	11%	0.1%
COc1ccc(COC(=O)N/N=C2/C[C@@H](O)[C@@H](O)[C@@H]3[C@@H]4C(=O)N(Cc5ccc6c(c5)OCO6)C(=O)[C@H]4CC[C@H]23)cc1	/	/	/	0%[11.4 µM]	0.3%[11.5 µM]
O=C(Cn1c(=O)n(Cc2ccc3c(c2)OCO3)c(=O)c2ccccc21)N1CCCc2ccccc21	i	i	1.2e-08	8%	1.3%
Cn1cnc2c1c(=O)n(CC(O)CO)c(=O)n2C (stereo not drawn)	i	i	2.1e-08	-4%	0.1%
Cc1c(C(=O)Nc2ccc(F)cc2)oc2ccc(S(=O)(=O)N3CCCC3)cc12	/	/	/	-1%	3.5%
COC(=O)c1oc2c(c1C)C1(CCC2)SCCS1	i	i	4e-08	/	-1.4%
Cc1ccc(-c2cc(-c3nnc(SCC(=O)N(C)CCC#N)n3N)c3ccccc3n2)cc1	i	i	1.1e-09	/	2.4%
O=C(c1nc2ccccc2s1)N1CCN(c2ccccn2)CC1	i	i	1.3e-09	?	0.8%
O=C(Oc1ccc(OC(=O)N2CCCCC2)cc1)c1ccccc1	i	i	4.6e-08	-1%	-0.3%
COCCNC(=O)C(c1ccc(C)o1)N(Cc1ccc(F)cc1)C(=O)Cn1nnc2ccccc21 (stereo not drawn)	i	i	3.6e-09	?	-1.5%
CC(=O)Nc1ccc(NC(=O)CNS(=O)(=O)c2ccc(C)cc2)cc1	i	i	1e-09	-3%	0.6%
CCCC(=O)Nc1ccccc1N1CCN(C(=O)C(C)C)CC1	i	i	2.1e-08	?	-1.4%
CC/C=C/C/C=C/C/C=C/CCCCCCCC(=O)OCC	/	/	/	?	0.4%
CCC(=O)c1ccc(OCC(O)CN2CCOCC2)cc1 (stereo not drawn)	i	i	5.4e-08	6%	5.1%
O=C(c1ccccc1F)N1CCN(c2ccccc2)CC1	i	i	6.8e-09	1%	0.2%
CN(CCO)C(=O)CCC(=O)Nc1ccc(S(N)(=O)=O)cc1	i	i	1.9e-08	2%[11.4 µM]	-0.5%
Cc1cc(C)n2c(SCC#N)nnc2n1	/	/	/	-10%	3.7%
CCCn1c(CCc2ccccc2)nnc1SCC(=O)N1CCOCC1	i	i	1.1e-08	-3%	4.4%
CCC[C@H]1C[C@H](C(=O)N[C@@H]([C@H]2O[C@@H](SC)[C@@H](O)[C@@H](O)[C@@H]2O)[C@H](C)Cl)N(C)C1	i	i	2.4e-08	-11%[25.6 µM]	-1.2%[25.7 µM]
CCC(C)[C@H](NC(=O)NCc1ccco1)C(=O)O (stereo partly drawn)	i	i	1e-09	3%	0.7%
O=c1c(CCc2ccccc2)nc2cnc(N3CCOCC3)nc2n1Cc1cccs1	i	i	3.7e-08	6%	5.2%
Cc1ccc2[nH]c3c(c2c1)CCC3=O	i	i	4.5e-09	9%	-1.3%

The listing continues.
structure	Resorufin fluor	A488 fluor	A647 fluor	TSHR agonist	AID923
COc1ccc(OC)c(C2C(C#N)=C(N)Oc3cc(C)[nH]c(=O)c32)c1 (stereo not drawn)	i	i	1e-09	/	/
COc1ccc2c(-c3cccnc3)cc(=O)[nH]c2c1	i	i	1e-09	4%	-0.9%
Cc1nnc(SCCn2c(Br)nc3c2c(=O)[nH]c(=O)n3C)s1	i	i	1.9e-09	-6%	0.3%
CC(=O)CCn1c(=O)n(CCC(C)=O)c(=O)n(CCC(C)=O)c1=O	i	i	1e-09	/	/
CCNC(=O)CCn1nc(-c2ccc(Cl)cc2)c2ccccc2c1=O	/	/	/	25%	-0.8%
O=C(O)[C@H]1CN[C@H](C(=O)O)C1	/	/	/	14%	2.3%
OCC1OC(c2ccccc2)C=CC1Oc1cc(Cl)cc(Cl)c1 (stereo not drawn)	/	/	/	-5%[11.4 µM]	-0.6%[11.5 µM]
COc1ccc(N2CCN(C(=O)CSc3nnc(-c4cc5ccccc5cc4O)n3C)CC2)cc1	i	i	1.9e-08	16%	-0.4%
Cc1noc(C)c1C(=O)OCC(=O)c1ccc[nH]1	i	i	1.3e-08	6%	0.0%
COc1ccc(NC(=O)CSc2nc3ccccc3c(=O)n2CCC(=O)N2CCCCC2)cc1	i	i	1e-09	?	-0.9%
c1ccc(N2CCN(Cc3nc4ccccc4[nH]3)CC2)nc1	/	/	/	9%	0.1%
COc1ccc(-c2nnc(SCC#N)o2)cc1	i	i	3.7e-08	-1%	0.5%
Cc1ccc(-c2nnc(N3CCN(C(=O)c4ccco4)CC3)c3ccccc23)cc1	i	i	3.6e-08	-6%	-3.0%
Cc1c(Cl)cccc1-n1ccnc1SCC(=O)O	i	i	1.8e-08	-4%	-3.9%
O=S(=O)(c1ccc(Oc2ccc(Br)cc2F)nc1)N1CCCCC1	i	i	3.2e-09	?	-0.1%

Molecules shown so far with a thiophene ring, fused or not:
structure	Resorufin fluor	A488 fluor	A647 fluor	TSHR agonist	AID923
Cc1cc(C(=O)NCc2cccnc2)cs1	i	i	8.1e-09	?	-0.1%
CCC1CCc2c(sc3ncnc(N4CCOCC4)c23)C1 (stereo not drawn)	i	i	1e-09	?	-1.6%
CC(C)(C)NC(=O)Cn1c(SCC(=O)NCc2cccs2)nc2ccccc21	i	i	4e-09	-1%	-3.5%
O=c1c(CCc2ccccc2)nc2cnc(N3CCOCC3)nc2n1Cc1cccs1	i	i	3.7e-08	6%	5.2%

(listing goes on)
structure	Resorufin fluor	A488 fluor	A647 fluor	TSHR agonist	AID923
Cn1c(O)c(C=NC(CC(N)=O)C(=O)O)c(=O)n(C)c1=O (stereo not drawn)	i	i	1e-09	15%	11%
O=C(Nc1cccc(Cl)c1N1CCCCC1)c1ccc2c(c1)OCCO2	i	i	2.1e-08	?	-2.2%
CCn1c(CNC(=O)COC)nc2ccccc21	/	/	/	-4%	-1.4%
Cc1cc(C)c(C(N)=O)c(Nc2ccc3c(c2)OCCO3)n1	i	i	4.8e-09	1%	-2.5%
COc1cc(C(=O)N(Cc2cc3cc(C)ccc3[nH]c2=O)CC2CCCO2)cc(OC)c1OC (stereo not drawn)	i	i	1.3e-08	8%	1.7%
COCCN(Cc1cc2ccccc2[nH]c1=O)C(=O)c1ccccc1OC	i	i	1e-09	6%	-0.3%
O=S(=O)(c1ccc(-c2nnc(SCc3ccccc3)o2)cc1)N1CCCC1	i	i	9.7e-09	29%	-1.1%
Cc1ccc(OCc2nnc(SCc3cc(=O)[nH]c4ccccc34)o2)cc1	i	i	1e-08	?	-0.3%
CCc1nnc(NC(=O)CSc2nnc(-c3cc4ccccc4cc3O)n2CC)s1	i	i	2.6e-08	8%	0.9%
CCOC(=O)/C(C#N)=C1/C=CN(C)C(C)=N1	/	/	/	-1%	2.4%

Screens (PubChem)

This is a subset; the hit share may differ from the screen's.
